Assay outcomes (PubChem)
MgrA-DNA mod = modulators of Staphylococcus aureus MgrA DNA binding | fluorescence polarization | inhibition, %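 (about 10 µg/mL by stock and volumes)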 | 84,000 tested, 0.13% active | AID 602314;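 active means above 50% in either of two replicates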;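 further: 0% = protein plus DNA without compound and 100% = DNA alone without protein; higher means less MgrA bound to DNA so lower polarization; one replicate is shown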
S aureus helic = blocks Staphylococcus aureus DNA helicase; purified S. aureus helicase, fluorescence unwinding assay; about half of the hits fall short of the stated cut; inhibition, %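 (tested at about 80 µM)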; 120,000 tested, 0.05% active; AID 485395;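 active means both duplicates at 50% or more, or one of them with a favoured structure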;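 further: 0% = mean of negative control wells and 100% = mean of positive control wells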
Numbers without * were called inactive; · = not tested or not shown; & = joins results of further samples. A portion of the library. The share of hits here may be higher or lower than overall.

SMILES | MgrA-DNA mod | S aureus helic
O=C(O)CCN1C(=O)C2CC=CCC2C1=O (stereo not drawn) | · | 8
COc1cccc(OCC(O)CN2CC(C)CC(C)C2)c1 (stereo not drawn) | · | -18
Cc1ccc(-n2nc(C)c3c2NC2=C(C(=O)CC(C)(C)C2)C3c2ccc(C)o2)cc1 (stereo not drawn) | · | -6
CC(C)CCNC(=O)C1(C)CCC(=O)N1CCc1ccccc1 (stereo not drawn) | · | -33
Cc1c(C(=O)O)oc2ccc3c(c12)C=CC1(CCCC1)O3 | -0.9 | 9
O=C(NCc1cccs1)C1C2C=CC3(CN(Cc4cccs4)C(=O)C13)O2 (stereo not drawn) | · | 19
Nc1nccc(-c2ccco2)n1 | 0.0 | ·
CS(=O)(=O)N1CCC(C(=O)O)CC1 | · | -6
CCN(CC)S(=O)(=O)c1ccc(NC(=O)c2ccc(C)cc2)cc1 | 1.3 | 15
CN(C)C(=O)CN1c2ccccc2-c2ccccc2S1(=O)=O | -4.4 | 11
COC(=O)c1sccc1S(=O)(=O)Nc1ccc(Cl)cc1 | -1.5 | ·
O=C(OCC(=O)N1CCN(C(=O)c2ccco2)CC1)c1ccccc1NS(=O)(=O)c1ccc(F)c(F)c1 | · | -4
CC(C)c1ccccc1NC(=O)c1ccc(Br)o1 | 0.2 | 1
NC(=O)CC(CC(N)=O)c1c(Cl)cccc1Cl | -1.1 | ·
COC(=O)c1cc(CN2CCN(C)CC2)ccc1O | 2.9 | 4
CCOC(=O)c1cccc(-c2ccc(C3C(C#N)=C(N)OC4c5ccccc5OC(=O)C43)o2)c1 (stereo not drawn) | 27 | -29
O=C(O)CCCS(=O)(=O)c1ccccc1 | 0.7 | -15
Cc1onc(-c2ccccc2)c1C(=O)OCc1ncc(-c2ccccc2)o1 | · | 17
CCOc1ccc(-n2c(CSc3nc(C)cc(C)n3)nnc2SC)cc1 | · | 27
Cc1cccc(C(=O)OC(C(=O)c2ccccc2)c2ccccc2)c1O (stereo not drawn) | 0.0 | 4
COCCN1Cc2cccc(C(=O)NCc3ccc(C)cc3)c2C1=O | · | 37
Cc1ccccc1NC(=O)CCCn1c(=O)c2cccn2c2ccccc21 | · | 13
O=C(Cn1c(=O)n(-c2ccccc2)c(=O)n1CC(=O)N1CCOCC1)N1CCOCC1 | -0.1 | 11
CCOC(=O)N1CCN(C(=O)CCN2C(=O)/C(=C\c3ccco3)SC2=S)CC1 | · | 9
C/C(=N\OCc1nc2c3cnn(C)c3ncn2n1)c1cccs1 | · | 3
O=C(c1cccc2c1OCCCO2)N1CCSCC1 | -2.0 | ·
Cc1ccc(C(=O)Oc2ccccc2N2CCOCC2)cc1 | · | -15
COc1ccccc1C1CCN(Cc2ccccc2)CC1 | -1.5 | ·
CC(Sc1n[nH]c(N)n1)C(=O)C12CC3CC(CC(C3)C1)C2 (stereo not drawn) | · | -6
COc1cccc(N=Cc2cc(OC)c(OC)c(OC)c2)c1 | -2.9 | ·
COC(=O)c1sc2cc(Cl)ccc2c1OC(C)C | -0.7 | ·
CCCc1ccc(C(=O)Nc2cnc3ccccc3c2)cc1 | · | 8
O=S(=O)(NCCc1cccs1)c1ccc2ccccc2c1 | -3.0 | -9
Cc1onc(-c2c(Cl)cccc2Cl)c1CSC(=S)N(C)C | 1.2 | ·
Cc1csc(N2CCc3ccccc32)n1 | · | 15
CC(=O)N1CC(C)C(=O)Nc2ccccc21 (stereo not drawn) | -2.0 | 11

Part of the list above, reformatted:
mol	MgrA-DNA mod	S aureus helic
COC(=O)c1sc2cc(Cl)ccc2c1OC(C)C	-0.7	·
CCCc1ccc(C(=O)Nc2cnc3ccccc3c2)cc1	·	8
O=S(=O)(NCCc1cccs1)c1ccc2ccccc2c1	-3.0	-9
Cc1onc(-c2c(Cl)cccc2Cl)c1CSC(=S)N(C)C	1.2	·
Cc1csc(N2CCc3ccccc32)n1	·	15

Remaining list, next part.
SMILES | MgrA-DNA mod | S aureus helic
O/N=C(\c1ccccc1)c1ccc(Cl)cc1 | -2.1 | ·
COC(=O)/C=C/c1cncc2ccccc12 | -2.8 | ·
COC(=O)c1ccc2c(=O)n(CCN3CCOCC3)c(SCC(=O)Nc3ccccc3OC)nc2c1 | · | -4
CN(C)N1C(N)=C(C#N)C(c2cccc(Cl)c2)C2=C1CC(C)(C)CC2=O (stereo not drawn) | · | -28
O=C(Nc1ccc(I)cc1)c1nsc(Cl)c1Cl | 1.9 | -13
CCN(CC)C(=O)COc1cccc2ccccc12 | · | -7
COc1ccccc1NC(=O)Nc1nnc(N2CCCCC2C)s1 (stereo not drawn) | 0.3 | 4
CN(C)Cc1ccccc1C(O)c1ccccc1 (stereo not drawn) | -0.2 | 3
C/C(=N\NC(=S)N1CCCC1)c1ccccc1 | 7.8 | -6
CCOC(=O)c1cc2sc(C)cc2n1CC(=O)N1CCCCC1C (stereo not drawn) | 15 | 4
Cc1ccc(O)c(C(CC(=O)NCC2(c3ccccc3)CCOCC2)c2ccccc2)c1 (stereo not drawn) | 1.5 | -9
CC(NC(=S)NC1CCCCC1)C(c1ccccc1)N1CCN(C)CC1 (stereo not drawn) | · | -8

Profiles, quoted from the list. Order of screens: MgrA-DNA mod | S aureus helic
Results for CCOC(=O)c1cc2sc(C)cc2n1CC(=O)N1CCCCC1C (stereo not drawn) → 15 | 4
Results for COc1ccccc1NC(=O)Nc1nnc(N2CCCCC2C)s1 (stereo not drawn) → 0.3 | 4
Results for CN(C)N1C(N)=C(C#N)C(c2cccc(Cl)c2)C2=C1CC(C)(C)CC2=O (stereo not drawn) → · | -28
Results for C/C(=N\NC(=S)N1CCCC1)c1ccccc1 → 7.8 | -6
Results for COC(=O)/C=C/c1cncc2ccccc12 → -2.8 | ·

Further compounds:
SMILES | MgrA-DNA mod | S aureus helic
Cc1cc(C)n2nc(C(=O)NC34CC5CC(CC(C5)C3)C4)nc2n1 | · | -27
CCN(C(=O)c1ccc(Br)o1)C1CCS(=O)(=O)C1 (stereo not drawn) | · | 2
O=C(COc1ccccc1C(=O)O)NC1CCCc2ccccc21 (stereo not drawn) | · | -9
O=S(=O)(O)c1ccc(Nc2ncnc3cc(Cl)ccc23)cc1 | -2.8 | ·
COc1ccccc1NC(=O)CN(C)S(=O)(=O)c1ccc2c(c1)CC(C)N2C(=O)C1CC1 (stereo not drawn) | · | -20
CCc1ccc(NC(=O)C2CC(c3cn(CC)nc3C)=NO2)cc1 (stereo not drawn) | -0.1 | 14
CNC(=O)CSc1nnc(SCCC(=O)O)s1 | · | 0
CN(CC(=O)NCc1ccccc1)S(=O)(=O)c1ccc2c(c1)CCC(=O)N2 | -1.4 | 11
COc1ccc(-c2csc(/N=C/N(C)C)n2)cc1OC | · | 22
Fc1c(F)c(N2CCOCC2)c(F)c(F)c1-c1ccccc1 | 1.5 | 5
Cc1cc(C)c(C(=O)Nc2ccc(C)c(C)c2)c(CC(C)(C)C(=O)O)c1 | -5.5 | ·
CCOC(=O)C1=C(CSc2nnc(-c3cccnc3)n2Cc2ccccc2)NC(=O)NC1C (stereo not drawn) | · | -16
COc1ccccc1-n1c(C)coc1=O | -1.3 | ·
CCCn1c(NC(=O)CCNC(=O)c2ccco2)nc2ccccc21 | · | 12
Cc1cccc(-c2nc(CCNC(=O)/C=C/c3ccco3)cs2)c1 | · | 3
Oc1ccc(Br)cc1C=Nc1ccc2c(c1)OCO2 | -2.1 | ·
COc1ccc(NC(=O)CC2SCCNC2=O)cc1 (stereo not drawn) | -1.5 | 13
CS(=O)(=O)Cc1cccc(C(=O)Oc2ccccc2C#N)c1 | · | -13
S=C1NN=C(c2ccccc2)CS1 | 0.0 | ·
Cc1ccc(-n2c(O)c(/C=N/c3ncn[nH]3)c3ccccc3c2=O)cc1 | · | 19
CCCN(CCC)S(=O)(=O)c1ccc(C(=O)SCC(=O)OCC)cc1 | 2.2 | ·
Nc1ccccc1N1CCOCC1 | -1.6 | -12
Oc1cncc(Cc2ccccc2)c1 | 2.4 | 6
Cc1ccc(C)n1-c1ccc(C(=O)NCC(F)(F)F)cc1 | · | -8
CCCCn1c(C)nc2cc(S(=O)(=O)N3CCOCC3)ccc21 | · | 8
COC(OC)c1ccnc(SCc2ccccc2Cl)n1 | -0.3 | ·
CSc1ncc(Nc2nc(C)cs2)cn1 | · | -4
CCS(=O)(=O)N1N=C(c2ccccc2)CC1c1cc2cc3c(cc2nc1Cl)OCCO3 (stereo not drawn) | 17 | -103
Cc1oc(C(=O)O)cc1COc1ccc2c(-c3ccccc3)cc(=O)oc2c1 | · | 27
CC1=C(C(=O)OCc2ccccc2)C(c2ccoc2)C(C#N)=C(N)S1 (stereo not drawn) | -0.8 | 10
CNC(=O)c1cc(-c2ccc(OC)c(S(=O)(=O)N3CCOCC3)c2)on1 | · | 9
O=C(O)c1ccc(C(F)(F)F)s1 | · | -20
O=C(NC(=O)c1c(Cl)cccc1Cl)Nc1nc2cc(Cl)ccc2s1 | 1.9 | ·
O=C(CSc1nccc(=O)[nH]1)Nc1cccc2ccccc12 | -0.8 | 1
N#CC1CCn2c(cc3sccc32)C1=O (stereo not drawn) | 21 | -4
NS(=O)(=O)c1ccc(CCNC(=O)CC2(CC(=O)O)CCCCC2)cc1 | · | 11
O=C(Oc1ccc(C2SCCS2)cc1)C1CCCCC1 | 2.9 | 7
C=CCN1C(=O)C(C)(C)Nc2ccccc21 | · | 2
O=C1C2=C(Nc3[nH]c(=O)[nH]c(=O)c3C2c2cccs2)c2ccccc21 (stereo not drawn) | 3.5 | 8
Cc1c2cnn(CC(=O)NCc3ccco3)c(=O)c2c(C)n1Cc1ccccc1 | · | -17
CSC(=NC(C)(C)CO)Nc1c(C)cccc1C | 0.0 | ·
CCCCN(C(=O)c1cccc(S(=O)(=O)N2CCOCC2)c1)c1c(N)n(CCC)c(=O)[nH]c1=O | · | 14
Cc1ccc(-c2nnn(CC(=O)c3ccc4[nH]c(=O)[nH]c4c3)n2)cc1 | · | 7
O=C(COC(=O)Cc1ccc(F)cc1)Nc1ccccc1 | · | -13
NC(=O)c1c(NC(=O)C2COc3ccccc3O2)sc2c1CCCC2 (stereo not drawn) | · | -18
CCOC(=O)N1CCC2(CC1)C(C#N)=C(N)OC1=C2C(=O)CCC1 | -0.2 | 9
CN(C)CC/C=C1\c2ccccc2Sc2ccc(Cl)cc21 | 2.1 | ·
O=C(CSc1ccccc1Cl)NC12CC3CC(CC(C3)C1)C2 | -2.4 | -39

Pulled one by one from the list above, 4 records:
SMILES | MgrA-DNA mod | S aureus helic
O=C(CSc1ccccc1Cl)NC12CC3CC(CC(C3)C1)C2 | -2.4 | -39
Cc1c2cnn(CC(=O)NCc3ccco3)c(=O)c2c(C)n1Cc1ccccc1 | · | -17
O=C1C2=C(Nc3[nH]c(=O)[nH]c(=O)c3C2c2cccs2)c2ccccc21 (stereo not drawn) | 3.5 | 8
CN(C)CC/C=C1\c2ccccc2Sc2ccc(Cl)cc21 | 2.1 | ·

New compounds follow
SMILES | MgrA-DNA mod | S aureus helic
CCOC(=O)CC(=O)c1sc(SC)nc1N | 3.0 | ·
Cc1ccc(S(C)(=O)=O)cc1 | -1.5 | ·
CCCc1ccc(C2=C(C)SC3=NS(=O)(=O)CCN32)cc1 | · | -7
CCN1CCN(c2cc(-c3ccccc3)c3ccccc3n2)CC1 | 0.4 | 7
Oc1cc2c(cc1O)CN(C(=S)NCCc1ccc(Cl)cc1)CCC2 | -2.3 | ·
Cc1nc(SCC(=O)OCN2C(=O)c3ccccc3C2=O)n[nH]1 | 4.5&0.9 | 0
Cc1cc(/C=C/C(=O)O)c(C)n1-c1ccnn1C(C)C | · | -13
O=S(=O)(c1cc(Cl)c(Cl)cc1Cl)N1CCN(Cc2ccccc2)CC1 | -2.0 | ·
NC12CC3CC(C1)CC(C(=O)O)(C3)C2 | · | 13
O=C(O)C1=C(C(=O)Nc2cccc(C(F)(F)F)c2)CCCC1 | -2.6 | 1
O=C(O)COc1ccc(C=Nc2ccc3c(c2)OCO3)cc1Cl | · | -3
Cc1ccc(C(=O)N2CCCCC2C(=O)O)o1 (stereo not drawn) | · | 3
COc1ccc(-n2nc3cc(C)c(N)c(Br)c3n2)cc1 | 35 | 5
CC(C)C(NS(=O)(=O)c1cccs1)C(=O)N(C)Cc1ccccc1 (stereo not drawn) | · | 6
O=C(O)c1ccccc1OCc1nc2ccccc2s1 | · | -9
CCNc1ccccc1-c1nc2ccccc2[nH]c1=O | · | -2
Cc1nnc(-n2nc(-c3ccccc3)cc2N)[nH]c1=O | · | 15
Cc1cccc(N(CC(=O)Nc2ccc3c(c2)oc2ccccc23)S(=O)(=O)c2ccccc2)c1 | -0.1 | 10
COc1cccc(C(CC(=O)c2ccc(Cl)cc2)C(C#N)C#N)c1 (stereo not drawn) | -1.3 | 2
Cc1cccc(C(=O)N[C@H](C(=O)Nc2nc3ccccc3[nH]2)C(C)C)c1 | · | -11
N#Cc1c(F)cccc1NCCCn1ccnc1 | -2.2 | ·
COc1cccc(NC(=O)C2CC(=O)n3cnnc3S2)c1 (stereo not drawn) | · | 10
CCc1ccccc1NC(=O)CN1CCN(Cn2c(=O)oc3ccccc32)CC1 | · | 0
O=C(c1cc(O)ccc1O)c1coc2ccc(O)cc12 | · | -57
N=C1/C(=C\c2cccn2Cc2ccccc2)C(=O)N=C2SC(N3CCCCC3)=NN12 | · | -10
N#CC1(c2ccccc2)CCCN1C(=O)c1ccco1 (stereo not drawn) | -0.7 | 4
CSc1sc(-c2nc(C)cs2)c(C)c1-c1ccn(S(C)(=O)=O)n1 | 0.0 | ·
C=CCn1c(=O)c(C(=O)NCc2cccnc2)c(O)c2ccccc21 | -2.4 | 4
O=S1(=O)CC(S(=O)(=O)c2ccccc2)c2ccccc21 (stereo not drawn) | · | -14
O=C(CSCc1ccc(F)cc1)N1CCOCC1 | · | -22
CC(=O)Nc1ccc(Oc2nc(C)cc(C)n2)cc1 | -3.2 | 3
CC(=O)c1cccc(NC(=O)C2COc3ccccc3O2)c1 (stereo not drawn) | -3.4 | ·
